BJeLR viability: BJeLR cell viability loss | BJeLR (HRASV12) viability, CellTiter-Glo ATP luminescence, 48 h; reference of the scale not given here | inhibition, % (no concentration beside the values) | 300,000 compounds, 0.17% hits;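 active = replicate mean above 50%; inconclusive = above 50% but judged a plate artefact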;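 also: 50 nL library stock added to about 25 µL; numbers are from one replicate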
Sa ugtP lethal: growth inhibition of S. aureus ugtP deletion strain | S. aureus RN4220 ugtP deletion, OD600 growth, 16 h; some inactives read as strong as hits | growth inhibition, % (concentration not given with the values) | 330,000 compounds, 0.54% hits | AID 1259309;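 active = z-score under -3 and OD600 up to 0.15 on both plates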;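 also: plate controls were untreated wells for no effect and antibiotic for full effect; wells of about 80 µL received 100 nL stock; the first replicate is given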
Bead autofluor: flagged as autofluorescent in microsphere protease counterscreen; compound autofluorescence counterscreen, microsphere flow cytometry; hits give high values; fluorescence intensity (test concentration not listed); 360,000 compounds, 3.1% hits; AID 624483;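 active = at least 3 SD above the mean of all compounds, about 16000 in these data; inconclusive = too few beads counted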;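 also: 100 nL of 1 mM stock went into each well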
PrP UTR inh: suppresses PrP 5' UTR mRNA reporter expression | 340,000 compounds, 0.35% hits | cell-based PrP 5' UTR mRNA reporter, plate reader | inhibition, % (concentration not given with the values);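 active = every replicate at 50% or more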;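 also: 0 = median of the neutral control wells; tested in H4 reporter cells; numbers are from one replicate; inactives centre near -14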
RN4220 kill: S. aureus RN4220 growth inhibition | OD600, 16 h | inhibition, % (test concentration not listed) | 330,000 compounds, 0.33% hits;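 active = z-score of -3 or lower and OD600 up to 0.18 on both plates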;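 also: plate controls were untreated cells for no effect and reference antibiotic for full effect; stock transfer was 100 nL into about 80 µL; one replicate is shown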
Mtb hypoxia inh: reduces hypoxia-regulated biosensor signal in M. tuberculosis. M. tuberculosis hypoxia-regulated fluorescent reporter, fluorescence. fluorescence inhibition, % (concentration not given with the values). 300,000 compounds, 0.1% hits;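 active = 35 to 45% if threefold the growth effect, above 45% if 1.5-fold the growth effect; inactive = the rest, general growth blockers included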;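 also: wells of about 50 µL received 100 nL stock; 0% = vehicle wells and 100% = reference inhibitor wells; whole bacteria with a GFP reporter of the hypoxia response; strong numbers were not always called active; many hits fall short of the cut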
Mtb hypoxia inh growth: further read-out of Mtb hypoxia inh, marked with its call; growth inhibition, %; measured here: M. tuberculosis growth (absorbance);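 0% = vehicle and 100% = reference antibiotic; read after six days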
* marks the source's active call; other numbers are inactive results; ? = inconclusive; . = no result given; & = joins results of further samples. No enrichment for hits. Share with any hit: about 4%.

SMILES	BJeLR viability	Sa ugtP lethal	Bead autofluor	PrP UTR inh	RN4220 kill	Mtb hypoxia inh	Mtb hypoxia inh growth
CCCCN(C(=O)CCC(=O)Nc1cc(C)on1)C(C(=O)NC1CCCC1)c1ccc(F)cc1 (configuration not stated)	-4	7	3155	12	0.8	-5	-9
CCOc1ccc(CNC(=S)NCc2ccc(OCC)cc2)cc1	-1	-3	2417	-4	0.7	4	3
COc1ccc2[nH]c(C(=O)NN=Cc3ccc(OC)c(O)c3)cc2c1	.	-13	.	.	-2.3	20	12
CC1=C(C(=O)Nc2ccccc2)C(c2cccs2)n2nnnc2N1 (configuration not stated)	-2	17	7794	-18	8.3	5	7
CC(C)=CCC/C(C)=C/CNC(=O)C[C@H]1C[C@H](C(=O)N2CCCCC2)[C@@]2(CCc3ccccc3)c3[nH]c4cc(CCC(=O)N(C)C)ccc4c3CCN2C1=O	.	0	3626	-6	1.2	-12	2
CCOC(=O)C1=C(C)Nc2ccccc2N=C1NC(=O)C(CC)c1ccccc1 (configuration not stated)	-3	2	2739	-8	4.2	3	-3
CCOC(=O)N1CCN(C(=O)CC(=O)Nc2ccc3nc4n(c(=O)c3c2)CCCCC4)CC1	6	0	3531	-15	3.2	13	11
COc1cccc(-c2cc(C(=O)Nc3c(C)n(C)n(-c4ccccc4)c3=O)no2)c1	-11	1	3390	-21	0.7	4	4
Cn1c(SCC(=O)Nc2ccc3c(c2)OCCO3)nnc1-c1cccnc1	0	-4	?	-3	1.1	-10	-3
O=C(Nc1ccccc1)c1nc[nH]c1C(=O)NCCCCNC(=O)c1[nH]cnc1C(=O)Nc1ccccc1	.	-25	4171	-40	5.8	5	6
COc1ccc(C2NC(c3ccc(OC)cc3)C(c3ccccc3)C(=O)C2c2ccccc2)cc1 (configuration not stated)	13	.	2966	-14	.	.	.
CCc1nc(NC(=O)c2sc(C)nc2C)sc1C(=O)OC	-2	2	3913	-25	1.5	2	-6
O=c1c(C(c2ccccc2)c2c(O)sc3ccccc3c2=O)c(O)sc2ccccc12	0	23	7886	-51&-14	-5.8	10	5
Cc1ccc(N(CC(=O)Nc2c(C)n(C)n(-c3ccccc3)c2=O)S(C)(=O)=O)cc1C	1	-7	6720	-10	2.3	.	.
NS(=O)(=O)c1ccc(CNC(=O)Cc2ccccc2F)cc1	18	5	3927	-24	8.7	0	-2
O=C1CC(c2ccc(Cl)cc2)CC(=O)C1CS(=O)(=O)c1ccccc1 (configuration not stated)	0	-5	3496	-18	6.7	4	2
O=C(Oc1ccccc1C(=O)Oc1ccccc1)c1cccnc1	-7	3	4582	-15	8.4	-2	6
COc1ccc(-c2nnc(NC(=O)c3cc(C)on3)s2)cc1	0	-5	17016*	-5	4.2	4	0
Cc1ccc(N/C(SCc2ccccc2C)=C(/C#N)C(=O)NCc2ccco2)cc1C	1	46	22786*	-18	-0.3	-7	2
Cn1cc2ccc([N+](=O)[O-])cc2n1	-9	4	4330	-16	2.3	4	10
COc1ccc(C=Nn2cc(-c3ccc(OC)cc3)nc2N)cc1	.	-18	.	.	11	-11	-8
O=C(CN(C(=O)C1CSC(=O)C1)c1ccc(F)cc1)NCc1ccc2c(c1)OCO2 (configuration not stated)	5	13	3837	-6	1.4	8	-3
CCc1cc(C(=O)c2ccc(OC)cc2)c(N)s1	1	2	4279	-6	4.9	-2	-6
CC1CN=C(NC(C)c2ccccc2)S1 (configuration not stated)	2	-5	2085	-18	-0.2	-3	-1
CN(C)CCSCc1nnc2n1-c1ccc(Cl)cc1C(c1ccccc1Cl)=NC2	-4	9	3841	-18	1.6	9	10
CCCOc1ccc(/C(O)=C2/C(=O)C(=O)N(CCOC)C2c2cccnc2)cc1 (configuration not stated)	0	-3	.	.	-10	-2	8
Cc1ccc2c(c1)C1CN(C)CCC1N2C(=S)Nc1ccc(OC(F)F)cc1 (configuration not stated)	9	13	4007	-13	4.7	11	8
Cc1nc2ccc(C(=O)OCC(=O)N(C)c3ccccc3)cc2nc1C	.	10	5001	-16	2.6	1	-4
COc1ccc(-c2nc(-c3ccccc3)ncc2S(C)(=O)=O)cc1	-11	5	4088	-9	-0.4	6	10
COc1ccc(C(=O)N/C(=C\c2ccc3c(c2)OCO3)C(=O)Nc2cccc(C(=O)O)c2)cc1	3	10	3206	-13	4.9	7	10
Cc1nc(NC(=O)CN2CCOCC2)sc1C(=O)N(C)C	-5	7	3129	-10	4.3	13	0
COC(=O)c1nc[nH]c1C(=O)OC	10	8	3996	-55	0.2	17	5
CC1=CC2=NC(=O)/C(=C\c3cccn3CCOc3cccc(C)c3)C(=N)N2O1	3	7	2510	-17	1.7	9	4
O=C(O)CC(SCC(=O)Nc1ccc(S(=O)(=O)N2CCCC2)cc1)C(=O)O (configuration not stated)	12	10	4737	-15	4.1	21	0
O=C(Cc1ccccc1F)Nc1nc(-c2ccc(F)c(F)c2)cs1	-11	15	3846	-16	-20	3	9
CC(Oc1cccc(Cl)c1)c1ccnc2nc(N=CN(C)C)nn12 (configuration not stated)	.	6	.	.	4.1	9	3
Cc1ccc(-n2c(C)nnc2SCC(=O)NC2CCCC2)cc1	-15	1	5085	1	0.8	3	3
N#C/C(=C\c1ccc(OC(=O)c2ccc(Cl)s2)cc1)c1nc2ccccc2[nH]1	7	.	2210	-89	.	.	.
O=C(CN(Cc1ccco1)C(=O)CNS(=O)(=O)c1ccc(F)cc1)NCCc1ccccc1	.	4	2826	-23	2.2	.	.
Cc1ccccc1NC(=O)CCNS(=O)(=O)c1ccc2[nH]c(=O)oc2c1	13	7	5739	-15	2.0	-6	0
COc1ccc(CN2CCNC(=O)C2CC(=O)NC2CCCCCC2)c(F)c1 (configuration not stated)	7	-2	?	-1	-0.6	-2	-5
C=CCNC(=O)C1(c2ccccc2)CC1(Cl)Cl (configuration not stated)	13	7	2633	-6	5.3	2	7
CCOc1ccc(NC(=O)Nc2cccnc2)cc1	3	-1	2625	-28	2.0	5	-1
O=C(c1ccc2oc(CCc3ccccc3)nc2c1)N1CC[C@H](O)C1	3	10	3796	-40	5.1	3	-13
CC1CC(NC(=O)C2C3CCC(O3)C2C(=O)O)CC(C)(C)C1 (configuration not stated)	4	5	1970	-15	-0.1	12	8
CC(=O)c1ccc(NCC(=O)N2CCN(c3ccccc3)CC2)cc1	.	-2	5281	-5	0.6	.	.
Cc1nn(-c2ccccc2)c(C)c1CN(C)C(=O)c1ccc(S(=O)(=O)NCc2ccco2)cc1	.	2	?	.	2.5	7	1
O=C(CN1C(=O)CCS(=O)(=O)c2ccccc21)Nc1cccc(F)c1	1	4	2859	4	19	-6	-7
O=C(CCC(=O)Nc1ccccc1)N/N=C/C=C/c1ccccc1	-14	.	2163	-4	.	.	.
Cc1c(NC(=O)c2ccc(=O)oc2)c(=O)n(-c2ccccc2)n1C	-9	-6	2700	-2	8.7	12	9
CSc1n[nH]c(NC(=O)c2c(-c3c(Cl)cccc3Cl)noc2C)n1	3	-2	4412	-14	2.8	18	4
O=Cc1ccc(OCCOc2ccc([N+](=O)[O-])cc2)cc1	5	-1	3176	-4	4.8	2	-7
Cn1nc(C(=O)OCC(=O)c2ccc[nH]2)c2ccccc2c1=O	9	6	2472	0	7.2	14	5
N#Cc1cc2c(nc1SCc1ccccc1)CCCCC2	-1	1	2315	-34	-0.6	.	.
CCOC(=O)N1CCN(S(=O)(=O)c2ccc(NC(C)=O)cc2)CC1	4	6	3672	-23	-0.2	15	6
Cc1cccc(Oc2nccc(C(F)(F)F)c2C(=O)Nc2ccc(F)cc2F)c1	-3	.	4309	-12	.	.	.
COCCNC(=O)Cc1cn(C)c2ccccc12	1	-2	1907	-2	4.7	.	.
COc1ccc(-c2nc(CS(=O)(=O)CC(=O)NCCCN3CCOCC3)c(C)o2)cc1	2	-1	4833	-9	-1.3	2	4
COc1cc2[nH]c(=O)n(CCCCCC(=O)NCCCN3CCC(C)CC3)c(=O)c2cc1OC	-2	-1	6066	-27	2.5	-6	3
O=C(Nc1cccc(NC(=S)NC(=O)c2cccs2)c1)c1ccccc1	6	.	9715	-23	.	.	.

Continued:
SMILES	BJeLR viability	Sa ugtP lethal	Bead autofluor	PrP UTR inh	RN4220 kill	Mtb hypoxia inh	Mtb hypoxia inh growth
CCCC(=O)N1CCN(c2ccc(NC(=O)c3ccc4c(c3)OCCO4)cc2)CC1	3	10	2945	-17	2.6	2	-6
COc1ccc(NC(=O)NN2CCN(C)CC2)cc1	-1	5	5608	-12	2.5	2	9
COC(=O)c1cc(S(=O)(=O)n2nc(C)c(Br)c2C)c(Cl)cc1Cl	1	-6	3581	1	9.3	15	7
C=CCN(Cc1cc(OC)ccc1OC)S(=O)(=O)N(C)C	.	8	3646	-3	-0.5	.	.
Cc1ccccc1OCC(=O)OCC(=O)c1ccc[nH]1	.	-6	?	.	0.1	-2	7
CCN(CC(=O)NCc1cccs1)C(=O)c1cccc(S(=O)(=O)Nc2ccccc2OC)c1	-6	-3	5491	-29	4.0	0	0
Cc1cc(Nc2ccccc2C(=O)O)n(-c2cccc(Cl)c2)n1	8	-11	5200	-28	10	-3	-4
Cc1ccc(C(=O)NCCCN2CCOCC2)cc1	2	.	2366	-32	.	.	.
COc1ccc(-c2ccc(CCC(=O)O)n2-c2ccccc2O)cc1	3	17	3368	-5	4.3	1	-1
CCN(CC)C(=O)c1cnn(-c2ccccc2)c1NC(=O)c1cccs1	-6	-10	2809	-8	-3.9	1	8
CC1(CC(=O)N/N=C/c2cc(Br)c(O)cc2O)OCCO1	-6	.	6994	-28	.	.	.
Cc1cc(C)c(NC(=O)CCN2CCN(Cc3ccccc3)CC2)c(C)c1	-1	2	.	-21	2.0	6	0

Some of the entries so far, as comma-separated lines:
SMILES,BJeLR viability,Sa ugtP lethal,Bead autofluor,PrP UTR inh,RN4220 kill,Mtb hypoxia inh,Mtb hypoxia inh growth
Cc1cc(Nc2ccccc2C(=O)O)n(-c2cccc(Cl)c2)n1,8,-11,5200,-28,10,-3,-4
O=C(c1ccc2oc(CCc3ccccc3)nc2c1)N1CC[C@H](O)C1,3,10,3796,-40,5.1,3,-13
Cc1c(NC(=O)c2ccc(=O)oc2)c(=O)n(-c2ccccc2)n1C,-9,-6,2700,-2,8.7,12,9

Next section:
SMILES	BJeLR viability	Sa ugtP lethal	Bead autofluor	PrP UTR inh	RN4220 kill	Mtb hypoxia inh	Mtb hypoxia inh growth
COc1ccc(C2CC(c3cccs3)=NN2C(=O)CN2CCCCC2)cc1 (configuration not stated)	7	10	3304	-25	-1.6	-6	1
O=C(O)c1ccccc1-c1ccc(/C=C2\SC(=O)N(c3ccccc3)C2=O)o1	15	5	3959	-19	6.4	8	0
COc1ccc(/C(N)=N/OC(=O)N2CCOCC2)cc1	-3	.	2307	-19	.	.	.
COc1cc(NS(=O)(=O)c2ccc(NC=C(C#N)c3nc4ccccc4o3)cc2)nc(OC)n1	.	-14	.	.	8.8	6	-5
Cc1ccc(-n2c(-c3ccccc3)cc(=O)nc2C)cc1	-2	9	7526	-26	6.3	7	-2
COc1cccc2cc(C(C)=NNc3nc(-c4cc(C)ccc4C)cs3)c(=O)oc12	.	-9	.	.	2.1	-5	10
CCOc1ccccc1/C=N/NC(=O)c1c(C)nc2ccc(Br)cn12	-5	.	3811	-24	.	.	.
COc1ccc(-n2c(=O)[nH]cc(C(=O)Nc3ccc(NC(C)=O)cc3)c2=O)cc1	10	1	8671	-11	4.4	7	3
C[C@H](NC(=O)c1ccccc1Cl)C(=O)OCC(=O)N1CCN(c2ccccc2)CC1	.	7	3429	-13	2.5	1	-4
Cc1ccc(Cn2cccc(NS(C)(=O)=O)c2=O)cc1	1	8	4102	-20	-3.1	5	-2
CN(C)/C=N/c1c(C#N)nnn1Cc1ccccc1	2	.	4123	-36	.	.	.
CC(=O)Cc1nsc(NC(=O)c2cc(-c3ccc(Cl)c(Cl)c3)oc2C)n1	4	-4	23305*	5	-0.9	-5	1
Cc1ccc(S(=O)(=O)N2CCOCC2)cc1NC(=O)CSc1nnc2cc(C)c3ccccc3n12	0	3	2553	-1	1.2	11	9
CCn1cc([N+](=O)[O-])c(C(=O)N2CCCCCC2)n1	12	2	6215	3	-0.1	2	8
COc1ccc(NC(=O)COC(=O)CCSc2ccccc2)cc1	.	7	2966	-5	3.5	9	-1
Fc1ccccc1CCNCc1cccc(Cl)c1Cl	15	10	4233	-12	8.5	4	1

Screening results (PubChem BioAssay)
